# Menin MLL FP FL: displaces fluorescein MLL peptide from human menin. FP activity change, % at 61.4 µM. Fluorescence polarization, fluorescein-MLL peptide displacement from menin. 290,000 tested, under 10 active; inconclusive = falling polarisation curve, or a change in total fluorescence; inactive = total fluorescence flat and polarisation flat or rising; no compound was filed as active; the % refers to the polarisation; negative = inhibition;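 also: % of control where 0% means no effect; inhibitors lower the polarisation; unlabelled MLL peptide was the positive control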
# gsp antag: antagonizes gsp, the McCune-Albright syndrome mutation | gsp-mutant cells, cAMP HTRF, 30 min; control for the full effect not named in the record | Potency, µM (titrated, usually from 76.9 µM), for inactives: at the top dose activity change, negative = inhibition, actives largely listed as inhibitors | actives 0.4% (n = 340,000) | AID 624288; active = falling curve of any shape with a large fitted effect; inconclusive = falling curve, mostly with a smaller effect; inactive = flat or rising curve; cell line not stated here;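 also: intracellular cAMP measured with PDE inhibitor Ro 20-1724 present during compound exposure; potency is read from the fitted curve at half-maximal effect; % is scaled to controls: 0 for no effect and ±100 for the full control effect; nearly all actives have a fitted effect of over 65% in size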
#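 Cells, 2000/well, grown 16–24 h in DMEM 10% FBS with 0.5 mg/ml G418, then compounds plus […] (300 uM addition stock), 30 min at 37C. cAMP read by HTRF (cAMP-d2 and anti-cAMP antibody-K in lysis buffer) after 30 min RT.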
# PINK1 expr mod: changes PINK1 expression. actives 0.2% (n = 410,000). AID 624263. Potency, µM (top dose mostly 76.6 µM), for inactives: at the top dose activation (PINK1 increase), usual class: activators. PINK1 immunofluorescence, high-content cytometry, 24 h; active = well fitted activation curve with a large enough effect; inconclusive = small, poorly fitted or top-dose-only effect; inactive = flat fitted curve, though single readings scatter; cell line not stated here;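 also: potency is read from the fitted curve at half-maximal effect; % of control where 0% means no effect; nearly all actives have a fitted effect of over 65% in size; a mitochondrial uncoupler was the plate control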
#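 Fluorescence from anti-PINK1 antibody, together with nuclear and cell stains, was scanned on a laser-scanning cytometer. Before staining, stable-line cells were incubated 24 hours with compounds at 5 concentrations; primary antibody 12 h at 10 degrees C.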
# gsp agonist: agonists of gsp mutant (McCune-Albright syndrome); actives 0.13% (n = 340,000); gsp mutant cells, cAMP HTRF, 30 min; control for the full effect not named in the record; Potency, µM (series often up to 76.9 µM), for inactives: at the top dose activation (cAMP increase), actives largely listed as activators; active = well fitted activation curve with a large enough effect; inconclusive = small, poorly fitted or top-dose-only effect, or another doubt; inactive = no such curve, though single readings can be large or run the other way; cell line not stated here;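 also: phosphodiesterase inhibitor Ro 20-1724 added with compounds to block cAMP breakdown; potency is read from the fitted curve at half-maximal effect; nearly all actives have a fitted effect of over 60% in size; about a fifth of the inactives were tested at one dose only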
#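 Cells in DMEM/10% FBS with G418 were pretreated with compounds in DMSO plus […] (300 uM stock) for 30 min at 37C. cAMP was measured by HTRF (cAMP-d2 plus anti-cAMP antibody-K) after 30 min at room temperature.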
# Sfp PPTase inh: inhibitors of Bacillus subtilis Sfp phosphopantetheinyl transferase | Q9F4F7 | Biochemical Sfp PPTase activity, qHTS | Potency, µM, for the others: max response, negative = inhibition, usual class: inhibitors | actives 3.5% (n = 310,000) | AID 1490; active = well fitted inhibition curve with a large enough effect; inconclusive = small, poorly fitted or top-dose-only effect, or another doubt; inactive = no such curve, though single readings can be large or run the other way;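 also: the enzyme is Sfp with the accession as filed and its product quenches rhodamine fluorescence; potency is read from the fitted curve at half-maximal effect; 0% = enzyme reaction without inhibitor and -100% = no enzyme wells; top concentration of the series not given in the record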
#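 After 15 min at room temperature with compound, 15 nM Sfp received 5 uM rhodamine-CoA plus 12.5 uM BHQ-2-ybbR (50 mM Hepes pH 7.6, 10 mM MgCl2). Rate came from the fluorescence difference over 30 min, ex 525/em 598 nm.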
# ClpP mod: qHTS Assay for Activators of ClpP | purified B. subtilis ClpP, FRET peptide cleavage, 20 min | AID 651965, 2013 | ATP-dependent Clp protease proteolytic subunit (Bacillus subtilis (strain 168)), P80244 | Potency, µM (highest dose often 57.5 µM), for inactives: at the top dose activity change, negative = active | actives 1.9% (n = 340,000); active = well fitted falling curve with a large enough effect; inconclusive = small, poorly fitted or top-dose-only effect; inactive = no such curve, though single readings can be large or run the other way; also: potency is read from the fitted curve at half-maximal effect; the source files actives as falling curves though it sought activators and does not explain the sign; nearly all actives have a fitted effect of over 65% in size; many hits overshoot -100%
# Target sequence (P80244 whole entry, looked up): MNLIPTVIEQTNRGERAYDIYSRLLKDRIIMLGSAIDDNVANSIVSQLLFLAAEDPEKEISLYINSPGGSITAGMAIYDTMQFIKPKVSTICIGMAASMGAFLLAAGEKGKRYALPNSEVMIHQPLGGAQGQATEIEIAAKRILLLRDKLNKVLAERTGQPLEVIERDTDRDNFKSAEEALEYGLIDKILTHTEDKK
#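 ClpP 10 microg/mL final, pH 8 Tris/KCl buffer with BSA, glycerol, Tween-20; compound pinned in; FRET-FV substrate; RT 20 min; Ex320/Em430; ΔFRET vs ADEP 5.8 microM, DMSO, no enzyme.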
# D2 agonist: agonists of human D2 dopamine receptor (beta-arrestin). P14416. DiscoveRx PathHunter D2 beta-arrestin, luminescence, 90 min; 100% = 57 uM dopamine signal. activation, % (no concentration beside the values). actives 0.084% (n = 360,000); in the data active = activation above about 40%; inconclusive = about 15% to 40%; inactive = below about 15%; also: compound concentration not given in the record; the text of the record calls up to 30% inactive
# Target sequence (P14416 whole entry, looked up): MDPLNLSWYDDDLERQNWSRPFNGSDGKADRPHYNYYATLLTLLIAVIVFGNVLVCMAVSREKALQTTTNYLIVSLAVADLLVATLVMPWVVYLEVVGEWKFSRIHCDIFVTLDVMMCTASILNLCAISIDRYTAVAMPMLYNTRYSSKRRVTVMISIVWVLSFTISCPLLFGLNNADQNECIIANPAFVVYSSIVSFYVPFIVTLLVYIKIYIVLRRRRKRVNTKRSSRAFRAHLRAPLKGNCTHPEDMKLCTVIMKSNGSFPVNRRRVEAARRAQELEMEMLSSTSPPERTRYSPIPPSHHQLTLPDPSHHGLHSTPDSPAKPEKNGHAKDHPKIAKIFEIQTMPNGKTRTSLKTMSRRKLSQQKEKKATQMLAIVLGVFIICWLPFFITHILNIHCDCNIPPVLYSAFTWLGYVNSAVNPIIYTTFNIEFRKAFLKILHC
#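 DiscoveRx PathHunter D2 beta-arrestin cells (2,100/well) attached overnight, then compound-stimulated 90 min at 37 C in HBSS/10 mM HEPES/0.1% Tween-20 buffer; beta-galactosidase complementation read by luminescence after 1 h at ambient temperature. Dopamine 57 uM final (EC100) as control.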
# Active calls of the source: *; u = inconclusive; x = not tested or not shown; & = joins results of further samples; [ ] = dose if it differs, or a comment.
SMILES,Menin MLL FP FL,gsp antag,PINK1 expr mod,gsp agonist,Sfp PPTase inh,ClpP mod,D2 agonist
COc1ccccc1CNC(=O)c1oc2ccc(S(=O)(=O)N3CCOCC3)cc2c1C,-5.8,-28%,2.3%,2%[15.4 µM],3%,x,-2.2
O=C1c2ccccc2C(=O)N1CCn1nc(Cl)nc1Cl,1.4,1%[15.4 µM],-0.2%,1%,-7%,-3.9%,0.5
O=C(O)c1ccccc1NCc1cccs1,0.6,-7%,2.1%,u,10%,4.4%,0.1
CCCCn1c(N)c(N(CCC(C)C)C(=O)COC(=O)c2ccccc2)c(=O)[nH]c1=O,1.4,21%,-0.5%,-5%[15.4 µM],2%,x,3.4
COc1cccc(N2CCN(C(=O)c3ccc(CS(=O)c4ccccc4C)o3)CC2)c1 (centres undefined),x,24%,9.6%,7%[15.4 µM],10%,x,1.1
COC(=O)c1sc(S(=O)(=O)Nc2ccc(C)cc2)c(C(=O)OC)c1C,6.7,2%,-1.2%,16%[15.4 µM],1%,-1.0%,-3.7
COCC(C)n1c(C)cc(C(=O)CSc2nc3ccccc3c(=O)[nH]2)c1C (centres undefined),8.1,u,3.6%[38.3 µM],-63%[inhibitor],-24%,1.7%,-3.1
O=C(c1ccco1)n1nc(NCc2ccccc2)nc1NCc1ccccc1,1.4,1%,3.5%,22%,u,47%,-3.0
COc1ccccc1OCC(=O)NNC(=O)C(=O)N1CCCC1,0.7,-3%,0.2%,22%[15.4 µM],0%,0.8%,-0.6
Cc1ccc(NC(=O)c2cc(NC(=O)C3CC=CCC3C(=O)O)ccc2N2CCOCC2)cc1 (centres undefined),-5.4,-8%,0.8%,11%,20%,-1.5%,-4.7
CC(CN1CCOCC1)C(=O)c1ccccc1 (centres undefined),3.6,13%,-0.5%[38.3 µM],-3%,-9%,-0.6%,-1.3
COc1ccc(/C(C)=N/Nc2nccnc2Cl)cc1,x,-2%,-1.7%,13%,x,-1.7%,5.0
COCCn1c(C)cc(C(=O)COC(=O)CNC(=O)c2ccccc2)c1C,3.0,-13%,2.3%,6%[15.4 µM],-3%,x,-2.3
Cc1ccc(N(CC(=O)NCc2ccc(F)cc2)S(=O)(=O)c2c(C)n[nH]c2C)cc1,3.5,-1%,-1.5%,13%,10%,1.2%,0.9
O=C(CCC(=O)Nc1ccccc1)NNS(=O)(=O)c1ccc(Cl)cc1,x,2%,-0.9%,16%,56µM*,-1.1%,-0.8
C[N+]1(CC(=O)Nc2ccc(F)cc2)CCN(C(=O)c2ccco2)CC1,0.9,1%,1.5%[38.3 µM],-45%[inhibitor],10%,-2.5%,-1.4
CCC(NS(=O)(=O)c1ccc(C)cc1)C(=O)N1CCC2(O)CCCCC2C1 (centres undefined),-0.6,4%,-1.2%,-3%,18%,-2.2%,0.1
COc1cc(C(=O)NCC2CCCCC2)ccc1OCc1c(C)noc1C,x,13%,8.4%,40%,x,2.3%,-0.5
O=C(Nc1ccc(SC(F)F)cc1)C1CC(=O)N(Cc2ccccc2)C1 (centres undefined),x,-17%,0.1%,u,-7%,10%,0.5
CCCCC(CC)C(=O)Oc1ccc(O)c(C(C)(C)C)c1 (centres undefined),2.7,0%,-1.2%,12%,-23%,x,8.4
N#Cc1c(NC(=O)CSc2nc(-c3ccccc3)cc(C(F)(F)F)n2)sc2c1CCC2,5.2,17%,17%,-5%,5%,25µM*,-4.6
Fc1ccc2[nH]c3c(c2c1)CN(C(=S)NCc1ccccc1)CC3,-0.9,-18%,25%,-4%[15.4 µM],-25%,u,2.4
COc1cc(CNC(=O)Nc2nnc([C@@H]3C[C@H](O)[C@@H](CO)O3)s2)cc(OC)c1OC,x,x,0.5%,x,x,-3.3%,-2.7
CC(C)C(O)(C#CCN1CCCC1)c1ccccc1 (centres undefined),5.3,10%[15.4 µM],0.8%,-50%[inhibitor],-6%,0.4%,-5.1
O=C(Nc1ccccc1OC(F)F)c1oc2ccccc2c1COc1ccccc1,8.2,-13%,13%,u,-7%,289%,0.8
COc1cccc(-n2c(SCC(=O)Nc3cc(C)on3)nc3c([nH]c4ccccc43)c2=O)c1,3.6,u,2.1%,1%,25µM*,-21%,-1.2
C=CCN=C1N[C@@H](c2ccc(Br)cc2)C(C(=O)OC)=C(C)N1Cc1ccccc1,-4.6,x,0.9%,x,-10%,1.0%,x
CC(C)CCNC(=O)/C=C/c1ccc(Br)cc1,6.7,4%,0.2%,17%,-27%,-15%,-2.8
Cc1sc2cc3c(c(C(=O)c4ccccc4)[n+]2c1C)-c1cccc2cccc-3c12,-0.2,-6%,u,-5%[15.4 µM],-17%,0.5%,-2.4
COC(=O)c1ccccc1NC(=O)CSc1nc(O)c(-c2ccccc2)c(=O)[nH]1,0.3,9%,1.5%,0%[15.4 µM],19%,1.0%,-4.6
O=C(Nc1ccc2[nH]c(=O)[nH]c2c1)c1ccc(Cl)c(Cl)c1,-8.4,4%,-0.2%,-4%[15.4 µM],5%,x,4.3
COc1ccccc1NS(=O)(=O)c1ccc(C(=O)NCC(c2cccs2)N2CCOCC2)cc1 (centres undefined),x,-17%,-0.9%,u,x,-0.4%,-4.2
CC(C)NC(=O)NC(=O)COC(=O)c1ccc(S(=O)(=O)NCc2ccco2)cc1,x,-4%,0.4%,u,x,0.1%,12
CS(=O)(=O)C1=NSC2=NC(=O)/C(=C\c3ccc(OC(=O)c4ccco4)c(Br)c3)C(=N)N21,u,-10%,0.1%,1%,-17%,-1.4%,2.8
Cc1ccc(C(=O)N/N=C\c2sccc2C)cn1,0.7,59%[activator],-0.2%,-4%,15%,-0.4%,-3.4
Cc1cc(C(=O)OCC(=O)c2cccc([N+](=O)[O-])c2)c2cccc(C)c2n1,5.4,10%,1.0%,7%,2%,-14%,-2.6
CC(=O)NCC(=O)OCC(=O)Nc1ccc(C(C)=O)cc1,-2.4,1%,-0.5%,18%,10%,-0.4%,-3.6
CC1=C(c2ccccc2)CCC1=O,x,7%,-0.6%,u,x,-1.6%,-3.0
O=C(O)CCCn1nc(-c2ccccc2)c2ccccc21,2.0,-15%,1.5%,-22%,17%,4.1%,-2.7
CC12CC3(C)CC(C)(C1)CC(C(=O)NC(=S)NC(C)(C)C)(C2)C3,-1.2,12%,2.1%,-55%[inhibitor],-12%,0.4%,-6.8
O=C(Nc1ccc(N2CCOCC2)c(Cl)c1)c1ccc([N+](=O)[O-])o1,-1.7,5%,-0.1%,16%,3%,0.9%,u
CC(C)CNC(=O)C(=O)NNC(=O)c1ccco1,0.9,7%,0.7%,13%[15.4 µM],4%,x,3.8
CCN(CC(=O)Nc1c(F)cccc1F)C(=O)/C=C/c1ccc(C)cc1,x,-2%,0.3%,5%,x,0.3%,-0.4
CC(=O)Nc1ccc(CNc2nc(NCc3cccs3)nc3ccsc23)cc1,x,x,2.2%,x,x,-7.7%,-3.4
CC(C)(C)OC[C@H](NC(=O)c1[nH]cnc1C(=O)Nc1ccccc1F)C(=O)OC(C)(C)C,x,x,6.2%,-20%,x,3.4%,0.2
COc1cccc(NC(=O)N2CCc3nc(Nc4ccc(C(C)C)cc4)ncc3C2)c1,x,x,10%,x,x,0.1%,10.0
Cc1ccc(-c2nnc(Nc3ccc(C(=O)N(C)C)cc3)c3ccccc23)cc1S(=O)(=O)NC(C)(C)CO,5.2,0%,5.8%,10%[15.4 µM],-21%,x,0.8
CN1CC(=O)N(CC(=O)Nc2ccc(Cl)c(C(F)(F)F)c2)C1=O,1.4,7%,3.2%,0%,7%,0.9%,-4.1

# Compound profiles, as listed above:
# `CC1=C(c2ccccc2)CCC1=O` in the list: Menin MLL FP FL = x; gsp antag = 7%; PINK1 expr mod = -0.6%; gsp agonist = u; Sfp PPTase inh = x; ClpP mod = -1.6%; D2 agonist = -3.0
# `O=C(Nc1ccc(N2CCOCC2)c(Cl)c1)c1ccc([N+](=O)[O-])o1` in the list: Menin MLL FP FL = -1.7; gsp antag = 5%; PINK1 expr mod = -0.1%; gsp agonist = 16%; Sfp PPTase inh = 3%; ClpP mod = 0.9%; D2 agonist = u

# Remaining list, next part:
SMILES,Menin MLL FP FL,gsp antag,PINK1 expr mod,gsp agonist,Sfp PPTase inh,ClpP mod,D2 agonist
O=C(Nc1ccc(-c2nc3cc(Cl)ccc3c(=O)o2)cc1)c1ccco1,-3.3,13%,-0.6%,7%[15.4 µM],7%,-0.2%,-3.8
O=C(Cc1ccccc1)Nc1scc(-c2ccccc2)c1C(=O)N1CCOCC1,-1.2,-33%,-2.4%,-24%,0%,0.1%,0.0
O=C(COc1ccc(Cl)cc1Cl)NN=C1c2ccccc2-c2ccccc21,x,4%,7.2%,-7%,-3%,0.6%,0.7
O=C(CSc1nnc(CNC(=O)C23CC4CC(CC(C4)C2)C3)n1-c1ccc(F)cc1)Nc1ccc(F)cc1,5.0,-21%,2.5%,-26%,-3%,1.3%,-1.0
CC(C)(C)[C@@H]1C=C(C(=O)O)[C@H](c2ccc(Cl)cc2)N1S(=O)(=O)c1ccccc1,x,-8%,-1.8%,x,x,-1.4%,-1.4
CCc1nnc2c3cnn(-c4ccccc4)c3ncn12,0.1,5%,0.2%,-23%,-11%,u,-0.1
Cc1ccc2sc(-c3ccc(NC(=O)/C=C\C(=O)O)cc3)nc2c1,0.1,x,4.7%,-9%[15.4 µM],-12%,x,-21
COc1cc(=O)n(C)c2c(OCC3OC(C)(C)OC3(C)C)cccc12 (centres undefined),-2.0&-2.8,-3%,-0.1%,x,-8%&6%,-15%,-1.7
O=C(NCc1ccc(Cl)cc1)C1CCN(S(=O)(=O)c2cccnc2)CC1,6.8,-7%,1.1%,25%,11%,-0.4%,2.6
